Screening results (PubChem)
Menin MLL FP FL: inhibitors of human menin-MLL interaction, wild-type MLL peptide; Fluorescence polarization, fluorescein-MLL peptide displacement from menin; FP activity change, % at 61.4 µM; 290,000 tested, under 10 active; inconclusive = falling polarisation curve, or a change in total fluorescence; inactive = total fluorescence flat and polarisation flat or rising; no compound was filed as active; the % refers to the polarisation; negative = inhibition;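 also: % of control where 0% means no effect; inhibitors lower the polarisation; unlabelled MLL peptide was the positive control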
TRPML1 inh: human mucolipin-1 channel inhibition | Q9GZU1 | TRPML1-inducible cells, Ca2+ dye fluorescence, FDSS; stronger effect = lower value; inhibition of EC80 agonist-evoked calcium signal | activity change, negative = inhibition, % (no concentration beside the values) | 390,000 compounds, 0.02% hits; in the data active means activity change below about -50%; inconclusive means about -30% to -50%; inactive means above about -30%;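 also: stimulus is agonist 54-4 at its EC80 concentration; % is scaled to controls: 0 for no effect and ±100 for the full control effect; compound concentration not given in the record; the text of the record puts the active cut at -80%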
Target sequence (Q9GZU1 whole entry, looked up): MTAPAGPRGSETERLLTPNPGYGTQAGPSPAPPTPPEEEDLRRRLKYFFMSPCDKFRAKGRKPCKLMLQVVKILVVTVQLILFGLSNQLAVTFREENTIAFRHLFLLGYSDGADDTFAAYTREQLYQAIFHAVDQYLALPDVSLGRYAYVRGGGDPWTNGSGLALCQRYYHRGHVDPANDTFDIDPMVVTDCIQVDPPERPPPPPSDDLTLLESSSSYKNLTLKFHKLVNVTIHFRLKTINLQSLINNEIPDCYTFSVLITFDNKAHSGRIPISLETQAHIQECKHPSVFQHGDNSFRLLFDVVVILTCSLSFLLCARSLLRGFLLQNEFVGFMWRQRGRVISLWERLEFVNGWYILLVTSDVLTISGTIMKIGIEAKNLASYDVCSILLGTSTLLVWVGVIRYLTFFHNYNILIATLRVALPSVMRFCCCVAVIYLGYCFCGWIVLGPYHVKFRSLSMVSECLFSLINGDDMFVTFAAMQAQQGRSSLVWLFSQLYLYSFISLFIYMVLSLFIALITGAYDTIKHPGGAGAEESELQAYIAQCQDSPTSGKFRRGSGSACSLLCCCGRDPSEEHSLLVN
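TRPML1-DL cells, Tet-induced overnight (~16 h, 37 °C) at 1,500 cells/well, were loaded with Ca8 no-wash dye plus quencher for 45-90 min at room temperature. Compounds were pinned during FDSS kinetic reading; agonist 54-4 at EC80 (4 uM final) then added.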
ClpP mod: qHTS Assay for Activators of ClpP; 340,000 compounds, 1.9% hits; Potency, µM (highest dose often 57.5 µM), without a hit: at the highest dose activity change, negative = active; ATP-dependent Clp protease proteolytic subunit (Bacillus subtilis (strain 168)), P80244; purified B. subtilis ClpP, FRET peptide cleavage, 20 min; active = well fitted falling curve with a large enough effect; inconclusive = small, poorly fitted or top-dose-only effect; inactive = no such curve, though single readings can be large or run the other way; also: potency is read from the fitted curve at half-maximal effect; the source files actives as falling curves though it sought activators and does not explain the sign; nearly all actives have a fitted effect of over 65% in size; many hits overshoot -100%
Target sequence (P80244 whole entry, looked up): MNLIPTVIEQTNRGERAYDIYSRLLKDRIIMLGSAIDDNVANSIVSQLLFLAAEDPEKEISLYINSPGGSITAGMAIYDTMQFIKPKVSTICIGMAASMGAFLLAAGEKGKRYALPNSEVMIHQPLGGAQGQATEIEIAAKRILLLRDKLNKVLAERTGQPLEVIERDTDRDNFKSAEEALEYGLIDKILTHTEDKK
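FRET quenching reversal measured ClpP activation: 10 microg/mL B. subtilis ClpP at pH 8 with the FRET-FV decapeptide, read at 430 nm after 320 nm excitation. The 20-min minus 0-min signal was scaled between DMSO/no-enzyme wells and ADEP (5.8 microM final).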
TRPML1 ag: human mucolipin-1 channel agonism; Q9GZU1; TRPML1-expressing cells, Ca2+ dye fluorescence, FDSS; host cell line not named in the record; reference of the full effect not given here; activation, % (no concentration beside the values); 410,000 compounds, 0.12% hits; AID 624414; in the data active = activation above about 50%; inconclusive = about 30% to 50%; inactive = below about 30%; also: 0% is about no effect; the text of the record puts the active cut at 80%
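Cells: TRPML1-DL, 1X Tet inducer, ~16 h at 37 degrees C/5% CO2. Dye: ABD Ca8 no-wash + quencher, 45-90 min RT. Read: 10 s baseline, compound add, 110 s agonist phase; 54-4 EC80 (4uM final), 110 s antagonist phase.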
PINK1 modulator: PINK1 expression modulation | PINK1 immunofluorescence, high-content cytometry, 24 h | 410,000 compounds, 0.2% hits | Potency, µM (doses to about 76.6 µM), without a hit: at the top dose activation (PINK1 increase), actives largely listed as activators; active = well fitted activation curve with a large enough effect; inconclusive = small, poorly fitted or top-dose-only effect; inactive = flat fitted curve, though single readings scatter; cell line not stated here;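 also: potency is read from the fitted curve at half-maximal effect; % of control where 0% means no effect; nearly all actives have a fitted effect of over 65% in size; a mitochondrial uncoupler was the plate control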
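Readout is PINK1 immunofluorescence, quantified alongside mitochondrial, cell and nuclear markers by laser-scanning microplate cytometry. Cells from a stable line were exposed to compound titrations (5 concentrations) for 24 hours, with CCCP controls.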
TRPV1 potentiator: enhances activation of the human vanilloid receptor TRPV1; Q8NER1; TRPV1-expressing cells, Fluo-8 calcium influx, capsaicin EC20 potentiation; host cell line not named in the record; control for the full effect not named in the record; potentiation, % at 8.33 µM; 320,000 compounds, 0.02% hits; active means potentiation above 80%; inconclusive means 30% to 80%; inactive means below 30%; also: 0% is about no effect
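Cells expressing TRPV1 were dye-loaded with Fluo-8 and read kinetically: 10 s baseline, 3 min after compound (agonist portion), then 2 min after EC20 capsaicin (allosteric enhancer portion). Calcium-bound dye fluorescence at 480/520 nm.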
Sfp inh: Sfp phosphopantetheinyl transferase inhibition. Q9F4F7. Biochemical Sfp PPTase activity, qHTS. Potency, µM, without a hit: max response, negative = inhibition, hits mostly inhibitors. 310,000 compounds, 3.5% hits. AID 1490; active = well fitted inhibition curve with a large enough effect; inconclusive = small, poorly fitted or top-dose-only effect, or another doubt; inactive = no such curve, though single readings can be large or run the other way;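 also: the enzyme is Sfp with the accession as filed and its product quenches rhodamine fluorescence; potency is read from the fitted curve at half-maximal effect; 0% = enzyme reaction without inhibitor and -100% = no enzyme wells; top concentration of the series not given in the record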
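Fluorescence-quenching assay: 15 nM Sfp-PPTase preincubated 15 min at room temperature with compound, then 5 uM rhodamine-CoA and 12.5 uM BHQ-2-labelled YbbR peptide added. Fluorescence (ex 525/em 598 nm) read at start and after 30 min; difference gives rate.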
Starred values were filed as active, the others as inactive; ? = inconclusive; . = no result given; [ ] = dose if it differs, or a comment.

A first look, 4 compounds:
SMILES	Menin MLL FP FL	TRPML1 inh	ClpP mod	TRPML1 ag	PINK1 modulator	TRPV1 potentiator	Sfp inh
COc1ccc2oc(C(=O)NC(C)(C)C)c(C)c2c1	-0.4	18	.	-0.9	0.6%	-17	15%
Cn1nnnc1SCC(=O)NC(=O)Cc1ccccc1	1.9	-6	-0.5%	-0.4	-0.9%	-10	4%
CCC(C)NC(=O)CSc1c2c(nc3cc(Cl)ccc13)CCCC2 (configuration not stated)	.	-13	-0.6%	-0.3	-1.9%	.	.
CCOC(=O)C1=CC[C@@H](c2ccccc2)N(S(=O)(=O)c2ccc(C)cc2)[C@H]1c1ccc(C#N)cc1	.	49	-3.0%	0.0	2.3%	.	.

This part in full, from the start:
SMILES	Menin MLL FP FL	TRPML1 inh	ClpP mod	TRPML1 ag	PINK1 modulator	TRPV1 potentiator	Sfp inh
COc1ccc2oc(C(=O)NC(C)(C)C)c(C)c2c1	-0.4	18	.	-0.9	0.6%	-17	15%
Cn1nnnc1SCC(=O)NC(=O)Cc1ccccc1	1.9	-6	-0.5%	-0.4	-0.9%	-10	4%
CCC(C)NC(=O)CSc1c2c(nc3cc(Cl)ccc13)CCCC2 (configuration not stated)	.	-13	-0.6%	-0.3	-1.9%	.	.
CCOC(=O)C1=CC[C@@H](c2ccccc2)N(S(=O)(=O)c2ccc(C)cc2)[C@H]1c1ccc(C#N)cc1	.	49	-3.0%	0.0	2.3%	.	.
O=C1CN(O)C=C2N=c3ccccc3=C2N1c1ccc([N+](=O)[O-])cc1	-0.3	17	1.0%	3.3	1.0%	-2	9%
COC(=O)C(NC(=O)c1ccc(Cl)cc1)(Nc1nc(C)cs1)C(F)(F)F (configuration not stated)	2.6	7	0.2%	0.3	0.7%[38.3 µM]	8	9%
CCOC(=O)CSc1nnc(-c2ccoc2C)n1-c1ccc(C)cc1	2.0	23	0.3%	0.7	0.3%	12	15%
Cc1cc2c(cc1C)N1C(=O)c3cc4ccccc4cc3NC(=O)C1C(=O)N2 (configuration not stated)	.	.	-2.1%	-0.6	5.1%	.	.
O=C(CCc1ccccc1)Oc1ccccc1[N+](=O)[O-]	.	-6	.	-0.1	-0.4%	.	.
Cc1ccc(NC(=O)c2cccnc2)cc1S(=O)(=O)N1CCOCC1	.	-3	-2.8%	-0.4	-0.8%	-22	.
O=C(NCCN1C(=O)CCC1=O)c1ccncc1	?	-25	0.4%	-0.5	-1.7%	-7	15%
COc1ccc(C(=O)NCC(=O)N2CCCCC2)cc1OC	2.7	-3	-0.9%	0.1	1.7%	-8	10%
O=C1NC(Cc2ccc(O)cc2)c2nc3cc(Cl)ccc3c(=O)n2-c2ncccc21 (configuration not stated)	.	-2	0.2%	0.0	2.8%	.	.
CCN1CCN(c2ncnc3c2sc(=S)n3-c2ccccc2)CC1	0.7	7	-3.0%	0.1	1.1%	-1	16%
CN(c1ccccc1)S(=O)(=O)c1ccc(C(=O)NCc2ccccc2CN2CCCC2)cc1	.	3	.	0.0	-2.9%	-4	.
COc1cccc(-c2ccc(NC(=O)C3CCCN(Cc4cnc(C)s4)C3)cc2)c1 (configuration not stated)	0.1	18	-0.9%	0.7	?	-22	10%
Cc1cc(C)c(NS(=O)(=O)c2ccc(Cl)c(C(=O)O)c2)c(C)c1	-0.9	1	-1.1%	-0.3	?	7	5%
COc1ccccc1C1=NOC(C(=O)N2CCN(C(=O)c3ccco3)CC2)C1 (configuration not stated)	-2.4	44	-6.7%	-0.7	-1.3%	2	4%
COc1ccc(-c2nn(-c3ccccc3)cc2C(=O)N(C)C)cc1	0.8	3	-7.3%	2.4	-2.4%	16	17%
N#Cc1c(N)nc(SCC(=O)NC2CCCCC2)c(C#N)c1-c1ccc(Cl)cc1	0.4	-3	28µM*	-0.3	?	9	13%
CCc1ccc(OCC(=O)NCCOc2ccccc2)cc1	1.6	-1	-1.8%	0.1	-4.6%[38.3 µM]	-6	-3%
Cn1c2ccccc2c2nnc(SCc3ccc4nonc4c3)nc21	1.1	-24	0.1%	1.3	9.2%[38.3 µM]	17	-1%
COc1cccc(C(C)(O)c2nc(-c3ccc(OC)c(OC)c3)cs2)c1 (configuration not stated)	.	.	-3.0%	0.2	-0.5%	.	.
COc1ccc(NS(=O)(=O)c2c(C)[nH]c(=O)[nH]c2=O)c(OC)c1	0.1	-3	-2.1%	-0.8	?	-2	8%
Cc1ccc(NC=C(S(=O)(=O)c2ccccc2)S(=O)(=O)c2ccccc2)c(C)c1	-2.8	75	-1.0%	4.5	1.9%	0	8%
Cc1ccn2c(Nc3ccc4c(c3)OCCO4)c(-c3ccccc3O)nc2c1	.	-2	-27%	-0.4	2.0%	.	.
COc1ccc2nc(Cl)c(C3CC(c4ccco4)=NN3C(=O)CCCC(=O)O)cc2c1 (configuration not stated)	19	27	.	0.1	3.7%	11	35µM*
O=c1[nH]c(C(F)(F)F)nc2ccc3ccccc3c12	-6.3	1	.	-0.4	0.7%	7	14%
CC(=O)Nc1ccc(S(=O)(=O)Nc2nc3ccccc3nc2Nc2ccc(S(N)(=O)=O)cc2)cc1	2.0	-1	0.9%	-0.2	-0.7%	-1	11%
Cc1cc(C)c(S(=O)(=O)N/N=C/c2ccc([N+](=O)[O-])o2)c(C)c1	8.8	0	2.5%	0.0	-0.6%	15	?
Cc1ccc(S(=O)(=O)n2c(C)nc3ccccc32)cc1	0.7	-6	1.0%	2.3	2.0%	-8	-5%
Cc1cccc(CNC(=O)CCCN2C(=O)COc3ccc(C)cc32)c1	.	-15	-2.3%	0.4	0.8%	.	.
O=C(N/N=C/c1cccc(O)c1)NC1CCCCC1	-4.2	0	.	3.2	-0.7%	1	8%
COc1ccc2[nH]c3c(=O)n(Cc4ccc(C(=O)NCC5CCCO5)cc4)c(=S)[nH]c3c2c1 (configuration not stated)	-1.0	5	-24%	0.5	3.2%	1	-3%
O=C(NCc1ccco1)c1ccc2c(c1)N(Cc1ccccc1F)C(=O)c1ccccc1S2=O (configuration not stated)	.	17	-2.1%	-0.2	0.3%	.	.
O=C(Cn1cnc2ccccc2c1=O)NCCCN1CCCC1=O	.	-12	-2.9%	-0.5	0.5%	3	.
Cc1cccc(N/N=C/c2ccccc2O)c1	8.5	5	7.0%	-0.4	7.4%	5	4%
CC12CC(c3ccccc3O1)N(C(=O)c1ccco1)C(=S)N2c1ccccc1 (configuration not stated)	3.6	-3	-5.0%	-0.2	-1.0%	-2	-7%
C[C@@H]1CN([C@H](C)CO)C(=O)CCCn2nncc2CO[C@@H]1CN(C)C(=O)c1ccc(N2CCN(C)CC2)cc1	.	4	0.8%	0.2	2.8%	.	.
CCN(CC)C(=O)c1cccc(-c2csc(C(C)(O)c3ccncc3)n2)c1 (configuration not stated)	.	.	-3.3%	-0.9	7.9%	.	.
O=C(C1CC(=O)N(C2CCCC2)C1)N1CCN(c2ccc(F)cc2)CC1 (configuration not stated)	.	-4	-1.9%	-0.9	-0.9%	.	.
O=C(O)CC(CC(=O)NCC(O)c1ccccc1)c1ccccc1 (configuration not stated)	-0.1	-4	-2.3%	0.1	2.0%	5	14%
CC(C)CC1NC(=O)N(CC(=O)N2c3ccccc3NC(=O)C2(C)C)C1=O (configuration not stated)	5.0	-1	-2.5%	0.2	1.5%	2	15%
Cc1ccc(-c2cc(C(F)(F)F)n3ncc(C(=O)NCc4ccco4)c3n2)cc1	-2.0	7	-1.1%	-0.8	3.9%	7	-4%
COc1ccc(NS(=O)(=O)c2ccc3oc(Nc4ccc5c(c4)OCCO5)nc3c2)cc1	-0.3	1	?	3.0	-2.0%	-4	-9%
Cc1ccc2nc(Cn3cc(C(F)(F)F)cc(Cl)c3=O)cc(=O)n2c1	-1.5	-26	.	0.0	-0.3%	4	4%
Cc1cc(C(=O)COC(=O)c2ccccc2Br)c(C)n1CC1CCCO1 (configuration not stated)	0.2	-23	0.1%	-0.3	2.4%	15	-6%
CC(C)(C)NC(=O)NC(=O)CSc1nnc(-c2ccccc2F)n1N	0.9	46	0.6%	1.3	2.0%	?	12%
CC1CCN(CC(=O)Nc2nccs2)CC1	-2.0	64	.	-0.2	0.1%	-1	7%
CCC(=O)N1CCC(C)(C(=O)NCc2cccc(OC)c2)C1 (configuration not stated)	.	.	-2.5%	-0.6	-0.4%	.	.
O=C(NC1CCCCCCC1)C1CCCN(S(=O)(=O)c2cnc[nH]2)C1 (configuration not stated)	3.5	48	1.1%	-0.4	4.8%	-11	-1%
Fc1cccc(Cl)c1-c1nnc2ccc3ccccc3n12	0.8	-3	-11%	0.8	-0.3%	4	-11%
CC(C)C(=O)N1CCN(c2ccccc2NC(=O)c2ccco2)CC1	-7.4	37	-1.7%	-0.3	3.8%	-15	-2%
Cc1ccc(C(=O)N2CCc3cc(CNC(=O)c4ccc(Br)cc4)ccc32)cc1	.	33	-3.1%	1.9	0.3%	.	.
Cc1[nH]c2ccccc2c1C(c1ccncc1)N1CCCCC1 (configuration not stated)	-1.6	-24	.	-0.4	3.0%	-10	8%
C=CC[C@@H](CC(=O)N[C@H](CO)Cc1ccccc1)C(=O)N[C@@H](COC(=O)[C@H](CC=C)CC(=O)OC(C)(C)C)Cc1ccccc1	.	41	1.7%	1.4	4.5%	.	.
COc1ccc(S(=O)(=O)N2CCN(C(=O)CCc3c[nH]c4ccccc34)CC2)cc1	.	-11	0.6%	-0.2	-1.3%	17	.
Cc1cc(C)nc(SCC(=O)N/N=C/c2cc(C)n(-c3ccccc3C)c2C)n1	5.1	40	-3.5%	2.3	4.8%	14	-23%
CN(CC(=O)NCC(c1ccco1)N1CCCCC1)S(=O)(=O)c1ccc(Cl)cc1 (configuration not stated)	.	1	-1.0%	-0.7	3.8%	-17	.
COc1ccc(-c2cc(C(=O)N3CCCC3)c3ccccc3n2)cc1	-0.5	-13	3.6%	0.0	1.0%	-2	-2%
CCCNC(=O)c1cnc(-c2ccccc2)nc1-c1ccccc1	2.2	2	.	1.0	6.7%	-8	14%
CCOc1ccc(CCNC(=O)C2CCN(c3nnc(-n4cccc4)s3)CC2)cc1OCC	3.5	14	-2.1%	0.2	-0.2%	0	14%
